HNF4A DNA FP: change in binding of human HNF4A to DNA, primary screen, biochemical, fluorescence polarization, FITC-DNA | actives 0.3% (n = 360,000) | activity change, % at 10 µM | Hepatocyte nuclear factor 4-alpha (Homo sapiens), P41235 | 1 h; in the data active means activity change above about 30%, passing the limit was not always enough;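 further: controls were the assay level and a saturating level of protein; the project sought stronger binding though the title names inhibitors; some compounds called inactive have numbers as strong as hits; positive values seem to mean higher polarization but the record does not say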
Vif TR-FRET: inhibitors of Vif binding to APOBEC3G peptide, primary screen, biochemical, TR-FRET, GST-Vif 1-94, biotin-A3G peptide, dose response retest (AID 1117319) | Virion infectivity factor (Human immunodeficiency virus type 1 group M subtype B (isolate … | TR-FRET GST-Vif / biotin-A3G peptide binding; higher % means a stronger effect; test concentration not given here; strong numbers were not always called active | inhibition, %, or IC50 in µM where a hit was titrated | actives 0.57% (n = 260,000);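 active means above the screen mean plus three standard deviations and confirmed in dose response; inconclusive means results disagree or hit not tested in dose response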;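 further: Vif residues 1-94 fused to GST binding biotinylated APOBEC3G peptide 110-148; 0% = full assay without inhibitor and 100% = GST in place of GST-Vif; retest series ran down from 100 µM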
A1 inh: caspase 3/7 activation in MEF A1-2A-BIM cells, primary screen, A1 inhibitor project, cell-based, luminescence, HTS. Caspase-Glo 3/7 luminescence, 3 h; percent of clofoctol response, vehicle zero. caspase activation, % (concentration not given with the values). actives 0.066% (n = 330,000). AID 2462, 2010;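 active means over half of replicate activation scores above 10%, or exactly half above 10 with the replicate mean above 10; inconclusive means replicate mean below 10 yet half the replicates above 10; inactive means over half of replicates below 10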;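 further: wells of about 30 µL received 50 nL stock; many hits fall short of the cut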
B2AR ag: beta2AR agonists driving receptor internalization, primary screen, cell-based, FAP fluorogen, flow cytometry; Am2.2-beta2AR cells; reference of the scale not given here; response, % (no concentration beside the values); actives 0.43% (n = 340,000); AID 504454, 2011;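 active means response above a set limit, near 3 SD of response in nonfluorescent compounds, cut at about 42% in these data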;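 further: stock transfer was 100 nL into about 11 µL; a reference agonist was the positive control; negative values mostly stem from fluorescent compounds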
Target sequence (P07550 whole entry, looked up): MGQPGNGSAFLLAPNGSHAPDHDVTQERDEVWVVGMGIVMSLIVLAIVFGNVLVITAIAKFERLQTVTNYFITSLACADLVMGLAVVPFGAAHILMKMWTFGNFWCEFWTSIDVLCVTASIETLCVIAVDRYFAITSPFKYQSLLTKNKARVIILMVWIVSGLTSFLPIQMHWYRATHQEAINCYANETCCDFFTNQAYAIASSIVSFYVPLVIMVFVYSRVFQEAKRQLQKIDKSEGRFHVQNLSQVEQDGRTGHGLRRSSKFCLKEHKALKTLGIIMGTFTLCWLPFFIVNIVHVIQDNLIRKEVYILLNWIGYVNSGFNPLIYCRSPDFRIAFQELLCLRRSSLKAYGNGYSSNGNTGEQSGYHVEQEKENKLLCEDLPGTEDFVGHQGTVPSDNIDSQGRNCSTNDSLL
UCH37 inh: inhibitors of human UCH37 deubiquitinase, primary screen, biochemical, Ub-AMC cleavage, fluorescence. purified proteasome/UCH37. actives 0.33% (n = 330,000). inhibition, % (concentration not given with the values);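 active means mean of two replicates above 20%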;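 further: 0% = compound-free wells with enzyme and 100% = wells lacking proteasome; stock transfer was 100 nL into about 20 µL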
Target sequence (Q9Y5K5 whole entry, looked up): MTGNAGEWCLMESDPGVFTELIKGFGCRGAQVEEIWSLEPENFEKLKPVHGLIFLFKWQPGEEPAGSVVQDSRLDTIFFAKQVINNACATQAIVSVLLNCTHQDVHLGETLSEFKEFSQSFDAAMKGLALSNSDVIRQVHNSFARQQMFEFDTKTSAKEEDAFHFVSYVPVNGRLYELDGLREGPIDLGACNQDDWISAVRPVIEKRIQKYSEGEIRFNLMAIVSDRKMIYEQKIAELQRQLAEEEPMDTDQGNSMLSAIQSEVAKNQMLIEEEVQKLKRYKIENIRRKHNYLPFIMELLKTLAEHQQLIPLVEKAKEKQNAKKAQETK
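Material: Human UCH37 enzyme supplied as purified proteasome complex | Schedule: 30 min preincubation with enzyme, 25 min cleavage at room temperature | Detection: AMC fluorescence 355/460 nm | Measure: % inhibition of Ub-AMC cleavage fluorescence | Controls: Wells without proteasome as full block, compound-free enzyme plus substrate as uninhibited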
LANA-H2A inh: blockers of LANA interaction with H2A/H2B – biochemical, FP readout, HTS, primary screen | actives 0.6% (n = 320,000) | cell-free LANA-H2A/H2B peptide, fluorescence polarization | inhibition, % (concentration not given with the values) | Protein LANA1 (Human herpesvirus 8 type P (isolate GK18)), Q9QR71; in the data active means inhibition mostly above about 10%, no sharp cut-off; inactive means mostly below about 6.7%;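 further: stock transfer was 7.5 nL into about 10 µL; 0% = median of vehicle wells and 100% = median of positive control wells; one replicate is shown; the record names a cut of 25% in any replicate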
Ecoli growth: E. coli growth inhibition, primary screen, OD600 | Escherichia coli growth, 23 h; hits give low values | OD600 absorbance (concentration not given with the values) | actives 0.21% (n = 330,000);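 active means OD600 absorbance below the run mean of sample wells minus 3.6 SD, in any replicate, cut at about 0.56 in these data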;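 further: stock transfer was 300 nL into about 60 µL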
* hit, by the source's call; i = inactive; u = inconclusive; x = no result given. Rows are unselected; any-hit rate near 2.1%.

SMILES	HNF4A DNA FP	Vif TR-FRET	A1 inh	B2AR ag	UCH37 inh	LANA-H2A inh	Ecoli growth
COC(=O)C1Cc2c([nH]c3ccccc23)CN1C(C)=O (stereo not drawn)	2.1	-2%	0.9	17	-15	-2.8	0.67
COc1ccccc1NC(=O)NC(=O)c1ccccc1	-0.1	x	-9.3	0	1.5	3.1	0.7
O=C(NCc1ccc(-c2nc3ccccc3s2)cc1)c1cc2ccccc2o1	4.6	x	-1.4	-2	-0.8	2.1	0.72
CC(C)N1C(=O)NC2(c3ccccc3)N(C)C(=O)N(C)C12c1ccccc1 (stereo not drawn)	-1.9	x	0.0	4	1.0	10	0.69
CCC(=O)N(C)CCc1cc2c(c(OC)c1/C=N/NC(=O)[C@H]1C[C@@H]1c1ccccc1)OCO2	-3.0	16%	-1.0	-6	x	-2.7	x
COC(OC)C1(CCc2ccccc2)NC(=O)NC1=O (stereo not drawn)	3.9	1%	x	-4	2.5	x	0.72
CCc1nc(SCc2ccc(Cl)cc2)n[nH]1	1.2	-1%	0.3	-11	-0.6	-1.1	0.66
O=C(O)c1cccc(Cn2c(Cl)c(/C=N/NC(=O)c3ccc(O)cc3)sc2=O)c1	-2.3	7%	0.3	-6	x	-0.1	x
O=C(NCCCCCCNC(=O)NCc1ccco1)NCc1ccco1	x	11%	0.5	x	2.3	11	0.62
COc1ccc(C(=O)N/N=C(\C)CC(=O)Nc2ccc3ccccc3c2)c(OC)c1	0.5	x	0.1	16	x	-3.9	x
CCOC(=O)c1sc2nc(CN3CCCCC3)nc(Cl)c2c1C	-2.4	-2%	0.9	15	-20	0.5	0.68
COc1cccc(CC2(CO)CCN(Cc3cn(C)nc3C)CC2)c1	-3.7	x	0.8	2	-1.1	-2.8	0.64
N#Cc1cc([N+](=O)[O-])cnc1NCC(O)CO (stereo not drawn)	-0.8	7%	0.7	-4	7.1	-0.4	0.71
N#Cc1c2n(cnc1=O)CCCCC2	-0.8	2%	0.3	-2	0.2	1.0	0.71
O=S(=O)(NCC(c1cccnc1)N1CCN(c2ccc(F)cc2)CC1)c1cccs1 (stereo not drawn)	5.8	20%	-0.1	8	4.4	2.8	0.66
COc1ccc(C(=O)NCc2ccc(-n3cccc3)cc2)cc1OC	1.8	x	1.0	1	2.7	3.5	0.67
CC1(C)CC2CC(C)(CN2S(=O)(=O)c2ccc(C(=O)Nc3ccc(S(=O)(=O)N4CCOCC4)cc3)cc2)C1 (stereo not drawn)	4.8	26%	-0.2	8	0.2	-7.1	0.72
Cn1c(=O)c2c(ncn2CC(=O)N2CCOCC2)n(C)c1=O	-0.8	-5%	-0.8	-2	12	2.2	0.73
CCOc1ccc(CCNC(=O)COC(=O)c2ccc(Br)o2)cc1OCC	-1.4	3%	1.6	5	-1.2	0.3	0.69
O=C(NCC1CCCCC1)c1cc([N+](=O)[O-])ccc1N1CCOCC1	-6.6	4%	-0.6	0	4.8	0.6	0.71
NS(=O)(=O)c1cccc(NC(=O)c2cncc(Br)c2)c1	4.0	6%	-0.2	4	1.1	10.0	0.69
COc1cccc(NC(=O)CSc2nc3ccsc3c(=O)n2-c2ccc(C(=O)O)cc2)c1	-0.5	-2%	0.2	-3	-0.1	-0.6	0.7
COc1ccc(CNC(=O)N2CCN(c3ccccc3)CC2)cc1	2.6	-6%	-0.5	0	0.9	8.0	0.71
CCOC(=O)c1cnc2c(F)ccc(F)c2c1Sc1ccccc1	6.2	-11%	-0.9	-5	x	1.8	x
COc1ccc(N2CC(C(=O)Nc3ncccc3C)CC2=O)cc1 (stereo not drawn)	2.5	6%	0.2	0	-0.1	-5.3	0.68

Brought forward from above: 5 entries; new compounds follow.
SMILES	HNF4A DNA FP	Vif TR-FRET	A1 inh	B2AR ag	UCH37 inh	LANA-H2A inh	Ecoli growth
NS(=O)(=O)c1cccc(NC(=O)c2cncc(Br)c2)c1	4.0	6%	-0.2	4	1.1	10.0	0.69
COc1cccc(NC(=O)CSc2nc3ccsc3c(=O)n2-c2ccc(C(=O)O)cc2)c1	-0.5	-2%	0.2	-3	-0.1	-0.6	0.7
COc1ccc(CNC(=O)N2CCN(c3ccccc3)CC2)cc1	2.6	-6%	-0.5	0	0.9	8.0	0.71
CCOC(=O)c1cnc2c(F)ccc(F)c2c1Sc1ccccc1	6.2	-11%	-0.9	-5	x	1.8	x
COc1ccc(N2CC(C(=O)Nc3ncccc3C)CC2=O)cc1 (stereo not drawn)	2.5	6%	0.2	0	-0.1	-5.3	0.68
Cc1cc(C)c(OCC(=O)OCC(=O)N2c3ccccc3CC2C)c(C)c1 (stereo not drawn)	-2.2	-5%	0.9	-4	2.6	1.2	0.65
CCn1c(=O)cc(OCC(=O)NCc2cccnc2)c2ccccc21	-0.6	1%	0.4	0	2.2	1.7	0.65
COc1ccc(CCNC(=O)c2cccn2C)cc1	3.4	x	-5.5	0	4.4	30*	0.68
CCOC(=O)N1CCN(C(=O)CSc2nc(C)nc3c2c(=O)n(C)c(=O)n3C)CC1	2.5	-6%	1.0	0	-1.5	1.4	0.69
C/C(=N\Nc1nc(N)cc(Cl)n1)c1ccc(Cl)c(Cl)c1	1.9	11%	0.0	4	x	3.7	x
Cc1ccccc1NC(=O)Cn1nc(-c2ccccc2)nc1-c1ccccc1	5.2	-8%	-0.3	-24	2.7	1.5	0.72
CCN(CC)CCCN1C(=O)C(=O)/C(=C(/O)c2ccc(C)cc2)C1c1ccccn1 (stereo not drawn)	-1.9	0%	-0.1	-7	5.5	-0.1	0.73
C#Cc1ccc([C@@H]2C=C(C(=O)OCC=C)O[C@H](OCc3ccc(CO)cc3)C2)cc1	-3.2	7%	-0.8	-6	1.6	8.6	x
CCOc1cc(/C=N/NC(=O)CN2CCCCC2)ccc1OCc1cccc(Cl)c1	0.3	x	0.9	6	x	-5.3	x
CC(=O)Nc1ccc2c(c1)C(C)(C)C(C)N2C (stereo not drawn)	x	27%	-0.6	x	-0.1	2.9	0.68
Cc1ccc(C)c(OCC(=O)Nc2ccc(S(=O)(=O)Nc3ncccn3)cc2)c1	0.8	-3%	0.0	6	-0.6	2.2	0.63
COCCN(C(=S)Nc1ccc(C)cc1)C(C)c1ccco1 (stereo not drawn)	-2.0	-12%	-0.4	6	1.1	0.2	0.65
Cn1c(CNC(=O)CNC(=O)c2ccc(F)cc2)cc(=O)n(C)c1=O	1.5	x	-0.2	-5	-34	-2.3	0.71
O=C(c1ccc(S(=O)(=O)Cc2ccccc2Cl)c([N+](=O)[O-])c1)N1CCN(c2ccccn2)CC1	0.1	x	0.3	4	2.0	-2.1	0.7
Cc1ccc(S(=O)(=O)Nc2ccc3c(c2)C(=O)N([C@H](C)CO)C[C@H](C)[C@@H](CN(C)Cc2ccc(-c4ccccc4)cc2)O3)cc1	-0.3	x	0.4	-1	4.2	2.1	x
O=C(Cc1ccccc1)NNC1CC(=O)N(c2ccc(Cl)cc2)C1=O (stereo not drawn)	3.4	8%	-0.1	8	0.4	2.4	0.72
CC(Oc1ccc2c(-c3ccccc3)cc(=O)oc2c1)C(=O)NC(Cc1c[nH]c2ccc(O)cc12)C(=O)O (stereo not drawn)	-6.1	x	-0.3	-13	-0.1	2.2	0.74
CCCC1C(c2ccc(OC)cc2)C(C#N)(C#N)C2(C#N)CC1(N)NC2=O (stereo not drawn)	-0.4	1%	1.3	-5	-2.1	6.7	0.69
COc1cccc(C2CC(c3ccc(C)cc3)n3ncnc3N2)c1 (stereo not drawn)	0.7	-2%	0.3	-5	-0.3	8.3	0.66
CC(=O)c1cccc(NC(=O)N2CCCC2C(=O)Nc2ccc3c(c2)OCO3)c1 (stereo not drawn)	0.4	4%	1.5	5	1.6	-4.2	0.71
CCC(=O)Nc1sc(C(=O)OC)c(C)c1C(=O)OC	-2.9	-8%	-0.7	4	3.6	-11	0.66
Cc1ccc(OCC(=O)NNC(=O)CSc2ncnc3sc(C)c(C)c23)cc1	2.8	-93%	-0.3	1	3.6	-0.8	0.72
CC(C)Oc1ccc(S(=O)(=O)N2CCOCC2)cc1NC(=O)c1cccc(S(=O)(=O)N2CCCC2)c1	2.0	x	x	18	6.6	x	0.67
Cc1cc(C)n(C(=O)CNC(=O)c2cccs2)n1	-0.1	-4%	0.2	1	4.2	-0.1	0.67
CN(C)CCNc1c2c(nc3ccccc13)CCC2	0.0	-5%	0.6	13	1.6	-2.2	0.68

Whole records, quoted from the list:
`Cc1ccc(C)c(OCC(=O)Nc2ccc(S(=O)(=O)Nc3ncccn3)cc2)c1` in the list: HNF4A DNA FP: 0.8; Vif TR-FRET: -3%; A1 inh: 0.0; B2AR ag: 6; UCH37 inh: -0.6; LANA-H2A inh: 2.2; Ecoli growth: 0.63
`CCOc1cc(/C=N/NC(=O)CN2CCCCC2)ccc1OCc1cccc(Cl)c1` in the list: HNF4A DNA FP: 0.3; Vif TR-FRET: x; A1 inh: 0.9; B2AR ag: 6; UCH37 inh: x; LANA-H2A inh: -5.3; Ecoli growth: x

The listing continues.
SMILES	HNF4A DNA FP	Vif TR-FRET	A1 inh	B2AR ag	UCH37 inh	LANA-H2A inh	Ecoli growth
COc1ccc(C2CC(=O)N(C)c3ccccc3S2)cc1OC (stereo not drawn)	0.5	x	0.8	2	2.0	-2.9	0.71
CCc1ccc(N(CC(=O)NC(C)(C)C)C(=O)CNC(=O)c2cccs2)cc1	2.8	x	0.3	-7	1.0	6.9	0.68
O=C(c1ccco1)N1CCN(S(=O)(=O)c2ccc(Oc3ccccc3)cc2)CC1	3.0	17%	0.3	-8	-0.2	2.7	0.69
COc1ccc(C(=O)COc2ccc(F)cc2)c(O)c1C	-0.5	11%	0.5	3	1.8	-3.2	0.69
COc1ccc(S(=O)(=O)N2CCOCC2)cc1NC(=O)COC(=O)c1[nH]c(C)c(C(C)=O)c1C	-5.0	0%	-1.6	12	1.8	-5.7	0.66
CSc1ccc(/C=C(\C(=O)O)c2ccc(S(=O)(=O)N3CCCCC3)s2)cc1	-1.0	x	0.9	2	-0.3	-5.5	0.67
O=C(O)CCC(=O)c1cccc2ccccc12	0.4	6%	-0.1	-2	1.2	-8.8	0.67
Cc1cc(N)cc(C)c1-c1c(Br)cc(N)cc1Br	1.4	-2%	x	4	3.6	x	0.68
O=C(COc1ccc2ccc(=O)oc2c1)NCCCN1CCCC1=O	0.4	-5%	-0.8	-13	-21	0.9	0.67
CN(C)c1ccc(C(=O)OCC(=O)NC2CCCCC2)cc1	-1.3	-4%	0.9	-5	1.4	-2.1	0.69
O=C(N=C1SC2CS(=O)(=O)CC2N1c1c(Cl)cccc1Cl)C1CC1 (stereo not drawn)	-5.0	7%	0.2	-1	0.8	10	0.68
CN(Cc1nc(-c2cnccn2)no1)Cc1n[nH]c2c1CCCCC2	1.0	u	-0.5	3	2.0	-5.6	0.7
O=C(CC(C(=O)O)P(=O)(c1ccccc1)c1ccccc1)c1ccc(Br)cc1 (stereo not drawn)	-0.7	3%	-0.3	-4	0.9	-0.8	0.69
CC(C)CNC(=O)CSc1nnc(-c2cccc(S(=O)(=O)N3CCCCC3)c2)o1	0.2	6%	u	-3	-1.2	i	0.74
O=C(NCCN1C(=O)S/C(=C\c2ccc(Cl)cc2Cl)C1=O)C1=COCCO1	2.1	7%	0.4	-9	4.0	-3.8	0.68
CN(Cc1ccccc1)C(=O)COC(=O)CCN1C(=O)C2CC=CCC2C1=O (stereo not drawn)	0.4	-11%	0.7	10	1.0	1.9	0.65
